Screens from PubChem BioAssay.
A488 autofl – compound fluoresces in the A488 spectral region. max dye equivalency, M. 59,000 tested, 0.1% active. AID 591. compound autofluorescence, A488 spectral region, dye equivalency; active compounds read high; active = above 10 nM dye equivalent; inconclusive = 1 to 10 nM; inactive = 1 nM or less; about half of its hits are not listed in these tables;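 also: highest value over a series up to 38 µM; compound alone in buffer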
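Spectroscopic profiling in the A488 region: compounds in pH 8.0 Tris (100 mM), 15 min RT, CCD imaging with 480 nm excitation and 540 nm emission; responses normalized against A488 dye standards.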
TSHR ag – agonists of human thyroid stimulating hormone receptor | 73,000 tested, 0.48% active | Potency, µM (highest dose often 57.1 µM), inactives show at the top dose activation, hits mostly activators | HEK293-CNG-TSHR cells (CNG channel as cAMP sensor), membrane potential dye, cAMP | AID 926 | P16473; active = well fitted activation curve of enough size with the parental cells flat; inconclusive = any curve in the parental cells; inactive = parental cells flat and receptor cells flat or falling; also: potency is read from the fitted curve at half-maximal effect; % of control where 0% means no effect; weak receptor curves with flat parental cells got no call and are not listed
Target sequence (P16473 whole entry, looked up): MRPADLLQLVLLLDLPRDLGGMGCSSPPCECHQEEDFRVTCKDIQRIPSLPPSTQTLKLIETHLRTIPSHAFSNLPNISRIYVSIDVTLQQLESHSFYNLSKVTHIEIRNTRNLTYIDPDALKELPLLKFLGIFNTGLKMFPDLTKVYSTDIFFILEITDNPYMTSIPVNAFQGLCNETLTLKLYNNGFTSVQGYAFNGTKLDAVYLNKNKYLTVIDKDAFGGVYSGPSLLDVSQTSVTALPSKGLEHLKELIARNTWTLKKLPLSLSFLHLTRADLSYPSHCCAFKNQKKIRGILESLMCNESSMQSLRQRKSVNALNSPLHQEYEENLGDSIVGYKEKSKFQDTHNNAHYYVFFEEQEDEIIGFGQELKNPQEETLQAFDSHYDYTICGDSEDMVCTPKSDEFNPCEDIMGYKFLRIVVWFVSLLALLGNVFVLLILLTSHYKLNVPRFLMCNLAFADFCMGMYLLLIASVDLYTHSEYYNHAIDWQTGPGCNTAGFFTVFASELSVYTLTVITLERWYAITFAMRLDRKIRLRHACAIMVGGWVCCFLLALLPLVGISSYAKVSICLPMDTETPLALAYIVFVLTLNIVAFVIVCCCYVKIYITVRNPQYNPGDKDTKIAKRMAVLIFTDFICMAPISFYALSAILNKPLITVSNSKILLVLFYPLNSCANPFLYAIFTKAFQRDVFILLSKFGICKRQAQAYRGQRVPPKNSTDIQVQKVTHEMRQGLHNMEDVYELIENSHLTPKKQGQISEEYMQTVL
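HEK 293 cells stably expressing TSHR and a cAMP-gated CNG channel; parental CNG-only cells as counterscreen. Cells preloaded 60 min with membrane potential dye plus 100 uM RO 20-1724, then compound 30 min; fluorescence read at 590 nm.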
Resorufin fluor – resorufin region autofluorescence; max dye-equivalent concentration, M; 59,000 tested, 0.04% active; Compound fluorescence, resorufin region 547/598 nm, buffer; active compounds read high; active = above 10 nM dye equivalent; inconclusive = 1 to 10 nM; inactive = 1 nM or less; a few of its hits are not listed in these tables; also: highest value over a series up to 38 µM
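Compounds in 100 mM Tris, pH 8.0, incubated 15 min at room temperature, then fluorescence read at 547 nm excitation/598 nm emission. Signal converted to dye-equivalent concentration via an on-plate six-point resorufin standard curve, per compound concentration.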
AID923 – qHTS Assay for Allosteric/Competitive Inhibitors of Caspase-1: Spectroscopic Profiling in AFC Spectral Region | Potency, µM (doses to about 57.5 µM), without a hit: at the top dose fluorescence increase, usual class: activators | 75,000 tested, 1.1% active | compound fluorescence, AFC spectral region (405/520 nm); almost no hit is shown here; active = well fitted activation curve with a large enough effect; inconclusive = small, poorly fitted or top-dose-only effect;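 also: potency is read from the fitted curve at half-maximal effect; 0% is about no effect; scaled to a free AFC standard on each plate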
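Compound autofluorescence profiled at 405 nm ex/520 nm em during kinetic caspase 1 run (50 nM enzyme, 5 uM Ac-WEHD-AFC, HEPES pH 7.5, 10 mM DTT). Titration up to 57 uM; baseline from regression intercept, normalized to AFC standard curve.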
A647 autofl – compound autofluorescence in A647 spectral region | Compound fluorescence, A647 channel (570/671 nm), Tris buffer | max dye-equivalent concentration, M | 59,000 tested, under 10 active | AID 592; active means above 1 µM dye equivalent; inconclusive means 0.1 to 1 µM; inactive means 0.1 µM or less;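 also: values scaled relative to a standard on each plate; highest value over a series up to 38 µM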
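Buffer was dispensed, compounds and Alexa 647 standards were pin-transferred, and plates sat 15 min at room temperature. Intensity at 570/671 nm was then converted to dye-equivalent concentration using the plate's A647 standard curve.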
The depositor's hits bear a star; i = inactive; u = inconclusive; x = no result given; & = joins results of further samples; [ ] = remark or other dose.

Compound | A488 autofl | TSHR ag | Resorufin fluor | AID923 | A647 autofl
COc1ccc(C2C(C(=O)NCc3cccnc3)c3ccccc3C(=O)N2C)cc1OC (centres undefined) | i | -5% | i | 1.6% | 1e-09
Nc1nc(SCc2ccc3c(c2)OCCO3)n[nH]1 | i | 6% | i | -1.0% | 1e-09
COc1cc2cc(C)c(SCC(=O)N3CCOCC3)nc2cc1OC | i | 3% | i | -0.7% | 1.5e-08
CCOC(=O)c1sc2ccc(S(=O)(=O)N3CCOCC3)cc2c1N | i | -3% | i | -0.4% | 5.3e-09
c1ccc(Nc2nc(-c3ccoc3)nc3ccccc23)cc1 | i | u | i | 2.5% | 1e-09
Cc1cc(C)nc(SCC(=O)Nn2cnnc2)n1 | i | u | i | 3.8% | 1e-09
O=C(O)c1cccc(NC(=O)c2cccc(S(=O)(=O)N3CCCCC3)c2)c1 | i | 7% | i | -2.1% | 4.5e-09
O=S(=O)(c1ccccc1)N1CCC(N2CCCCCC2)CC1 | i | x | i | x | 1.1e-08
N#Cc1nc(-c2ccccc2F)oc1NCc1cccc2c1OCO2 | i | x | i | -0.4% | 1e-09
O=C(O)C1C2C=CC3(CN(C/C=C/c4ccccc4)C(=O)C13)O2 (centres undefined) | x | -2%[11.4 µM] | x | 0.8% | x
CCN(CC)c1ccc(C2NC(=O)NC(C)=C2C(=O)Nc2ccccc2)cc1 (centres undefined) | i | -3% | i | 1.7% | 1.1e-08
C=CCn1c(=O)c2ccccc2n2c(SCc3c(C(=O)OCC)oc4ccccc34)nnc12 | i | 6% | i | 0.0% | 3.7e-08
CC(C)(C)c1ccc(NC(=O)CC2(C(F)(F)F)OCCO2)cc1 | i | -4%[11.4 µM] | i | -0.7% | 1e-09
COC(=O)C1(Cc2ccccc2)C2c3cc(C(=O)N4CCCC4)n(Cc4ccc(OC(F)(F)F)cc4)c3CC2CN1C(=O)c1ccccc1 (centres undefined) | x | u | x | 0.1% | x
CCOC(=O)c1ccccc1NC(=O)CN(c1ccccc1)S(=O)(=O)N(C)C | i | u | i | 0.3% | 1.1e-09
Cc1nc2sc(-c3ccccc3)cc2c(=O)n1-n1cccc1 | i | u | i | -0.1% | 2.6e-09
O=C(CCCCn1c(=O)[nH]c2ccccc2c1=O)N1CCN(c2ncccn2)CC1 | x | u | x | 2.2% | x
Cn1cnnc1SCC(=O)Nc1sccc1C#N | i | -2%[11.4 µM] | i | -0.4% | 3.3e-08
CC1=C(C(=O)OCc2ccccc2)C(c2ccccn2)c2c(n(C)c(=O)n(C)c2=O)N1 (centres undefined) | i | 0% | i | 0.6% | 3.4e-08
Cc1c(NC(=O)COc2ncnc3c(Cl)cc(Cl)cc23)c(=O)n(-c2ccccc2)n1C | i | 0% | i | -0.6% | 2.9e-09
Cc1noc(C)c1-c1nc(N2CCNCC2)c2ccccc2n1 | i | 19% | i | 0.4% | 2.8e-09
CCNC(=O)NC1(C(=O)Nc2ccc3c(c2)CCC3)CCCCC1 | i | 10% | i | 0.4% | 5.2e-09
O=C(NCCCc1ccccc1)C1CCN(c2nnc(-n3cccc3)s2)CC1 | x | u | x | 3.2% | x
CCN1CCN(S(=O)(=O)Cc2ccccc2)CC1 | i | 2% | i | 0.4% | 8.2e-09
COc1cc2c(cc1OC)-c1c(OC)c(OC)cc3ccnc(c13)C2=O | i | -4% | i | 5.1% | 1e-09
CCCc1cc(=O)[nH]c(SCC(=O)N2CCN(c3ccccc3)CC2)n1 | i | 2% | i | 1.5% | 1.4e-08
O=C(Cn1cnc2ccccc2c1=O)NC1CCCc2ccccc21 (centres undefined) | i | u | i | -0.4% | 4.1e-08
CCNc1nc(NC(C)C)nc(Nn2cnnc2)n1 | x | 3% | x | 0.4% | x
CN(C)C(=O)N1CCCC(C(=O)NCc2ccc(F)cc2Cl)C1 (centres undefined) | i | 5% | i | 1.0% | 1e-09
Cc1cc(Nc2cc(C)on2)n2ncnc2n1 | x | 2% | x | 1.1% | x
CCCCCCn1cnc2c(c1=O)c1nc3ccccc3nc1n2/N=C/c1ccco1 | i | x | i | 1.7% | 1e-09
c1ccc(OCCSc2nnc3sc4ccccc4n23)cc1 | i | u | i | -0.9% | 2.1e-08
O=C1CCC(=O)N1c1nc2nc(-c3ccccc3)cc(-c3ccccc3)n2n1 | i | x | i | x | 1e-09
O=C(CN(C(=O)Cn1nnc(-c2cccs2)n1)c1cnc2ccccc2c1)NCC1CCCO1 (centres undefined) | i | -2% | i | 4.2% | 5.8e-09
COCCNc1oc(-c2ccc(C)cc2)nc1C#N | i | x | i | x | 1.4e-09
Cn1c(N2CCOCC2)nc2c1c(=O)n(Cc1ccc(Cl)c(Cl)c1)c(=O)n2C | i | x | i | x | 7.2e-08
O=C1CSC(=NC(=O)c2ccccc2)N1 | x | 0% | x | 0.7% | x
CC(=O)c1cccc(N(CC(=O)O)S(C)(=O)=O)c1 | i | -2% | i | -1.2% | 8.1e-08
Cc1cnc(CNc2nc(-c3ccccc3C)nc3ccccc23)cn1 | i | 4% | i | 1.8% | 2.2e-08
CC1(C)CC(=O)C(C=NCCCO)=C(O)C1 | x | -3% | x | 1.2% | x
O=C(NCc1ccc2c(c1)OCO2)C1CCN(S(=O)(=O)c2ccc(Br)s2)CC1 | i | u | i | 1.0% | 3.2e-08
Cc1cccc(-c2nsc(SCC(=O)Nc3nccs3)n2)c1 | i | -5% | i | -1.7% | 1.5e-08
O=C(NC1CCCC1)C(c1cccs1)N(C(=O)c1ccno1)c1ccccc1 (centres undefined) | i | 25% | i | 1.0% | 3.9e-08
Cc1ccc(N(C(C)C(=O)O)S(=O)(=O)c2cccnc2)cc1 (centres undefined) | x | 2% | x | -1.9% | x
Cc1cccc(NC2=NC3(CCCCC3)N=C(N)N2)c1C | x | 23% | x | 3.5% | x
Cc1nc2ccc(C(C(F)(F)F)(C(F)(F)F)C(F)(F)F)cc2[nH]1 | i | 4% | i | -0.2% | 4.6e-08
Cc1cccc(OCc2nnc(SCC(=O)c3cccs3)n2C)c1C | i | 9% | i | 0.1% | 1e-09
O=C1CC(N2CCC(c3nc4ccccc4o3)CC2)C(=O)N1c1ccc(Cl)cc1 (centres undefined) | i | x | i | -2.1% | 3.3e-08
O=C(C1CCCCC1)N(CCN1CCCC1)c1nc2ccccc2s1 | i | 4% | i | 1.3% | 1e-09
NC(=O)c1sc2nc3c(c(-c4cccs4)c2c1N)CCCC3 | i | 2% | i | 5.1% | 3.6e-08

Three of the entries above in order of their number in A647 autofl, rising.
mol,A647 autofl
O=C(C1CCCCC1)N(CCN1CCCC1)c1nc2ccccc2s1,1e-09
Cc1cnc(CNc2nc(-c3ccccc3C)nc3ccccc23)cn1,2.2e-08
O=C1CC(N2CCC(c3nc4ccccc4o3)CC2)C(=O)N1c1ccc(Cl)cc1 (centres undefined),3.3e-08

Next compounds follow:
Compound | A488 autofl | TSHR ag | Resorufin fluor | AID923 | A647 autofl
CC(C)(C)c1cc(C(=O)O)nn1-c1ccccc1 | i | -2% | i | -0.7% | 1.4e-08
O=C(O)c1cccc(NS(=O)(=O)c2cccc3cccnc23)c1 | x | -2% | x | -1.0% | x
COc1c2c(nc3ccccc13)O[C@H]([C@@](C)(O)CO)C2 | i | 2%[25.6 µM] | i | -0.6%[25.7 µM] | 1e-09
Cc1ccc2ncccc2c1NS(=O)(=O)c1ccccc1 | i | 14% | i | 0.5% | 1e-09
Cc1n[nH]c(C)c1S(=O)(=O)N1CCCC(C(=O)Nc2ccc3c(c2)OCCO3)C1 (centres undefined) | i | -2% | i | 1.3% | 6.1e-09
Cc1ccccc1C(=O)Nc1ccc2c(c1)OCO2 | i | -1% | i | 0.9% | 1.9e-08
COc1ccc(C2CC(c3c(Cl)cccc3Cl)n3nc(N)nc3N2)cc1 (centres undefined) | x | 17% | x | 0.5% | x
CCC(C)(C)NC(=O)C(c1cccn1C)N(Cc1ccc(C)cc1)C(=O)Cn1nnc2ccccc21 (centres undefined) | i | u | i | -1.2% | 2.2e-08
N#Cc1c(NC(=O)CSc2ncc(-c3ccccc3)n2CC2CCCO2)sc2c1CCCC2 (centres undefined) | i | 26% | i | 0.5% | 4.7e-08
CCn1cnc2scc(-c3ccccc3)c2c1=O | i | u | i | 0.1% | 1e-09
COc1ccc(CNC(=O)C2CCN(C(=O)N3CCOc4ccc(C)cc43)CC2)cc1 | x | 0% | x | 0.0% | x
CC(C)OC(=O)CCNc1n[nH]c(=O)[nH]c1=O | i | x | i | x | 1.7e-08
CCn1c(SCC(N)=O)nc2c(c1=O)C1(CCCC1)Cc1ccccc1-2 | x | u | x | -0.4% | x
CCOC(=O)N1CCC(NC(=O)c2ccc(CNS(=O)(=O)c3ccc(F)cc3)cc2)CC1 | i | 25µM* | i | -1.0% | 1e-09
Cc1c(C(O)CN2CCC(C(N)=O)CC2)c2ccccc2n1C (centres undefined) | i | 0% | i | -0.3% | 1e-09
CCOC(=O)CC(=O)CSc1nc2c(c(C)c1C#N)CCC2 | i | 18% | i | 6.0% | 4.1e-08
CCOC(=O)C1CCN(C(=O)C2(NC(=O)Nc3ccccc3Cl)CCCCC2)CC1 | i | u | i | -0.1% | 1.8e-09
Cc1cc(OCn2ccc(C(=O)O)n2)ccc1Cl | i | -2% | i | -0.9% | 4.4e-09
N[C@@H]1CCN(O)C1=O | i | u | i | 0.1%&-0.7% | 2.5e-09
COC(=O)c1ccccc1NC(=O)CN1C(=O)c2ccccc2S1(=O)=O | i | 11% | i | -1.1% | 1e-09
CC(C)(C)c1ccccc1OCCCCCNCCO | x | 8% | x | 1.5% | x
Cc1ccc(S(=O)(=O)N2CCOCC2)cc1C(=O)Nc1nc(-c2cccnc2)cs1 | i | 18% | i | -0.3% | 9.2e-09
CC(C)N=C(NC#N)SCc1ccc(F)cc1 | i | 8% | i | -0.6% | 4.1e-09
CCOc1ccc(N2CC(C(=O)Nc3ccccc3OC)CC2=O)cc1 (centres undefined) | x | -10% | x | -0.4% | x
CCCOC1CCCN(C(=O)c2cc(Cl)c(Cl)cc2C(=O)O)C1 (centres undefined) | i | 3% | i | -3.0% | 1e-09
COc1cccc(CNC(=O)CN(c2cc(C)cc(C)c2)S(=O)(=O)c2c(C)noc2C)c1 | x | 27% | x | -4.1% | x
Cc1ncc([N+](=O)[O-])n1CC(O)CCl (centres undefined) | i | x | i | x | 4e-09
CC(C)Oc1ccc(NC(=O)c2ccncc2)cc1 | i | 10% | i | 1.7% | 2.6e-08
CN(C)c1ccc(-c2nc3ccccc3n2C)cc1 | i | -8%[11.4 µM] | i | 2.8% | 1.3e-09
CCCCNC(=O)c1ccc(NS(=O)(=O)c2ccccc2)cc1 | i | u | i | 1.4% | 1e-09
Cc1nn(-c2ccccc2)c2nc(-c3ccco3)cc(C(=O)O)c12 | i | 3% | i | 2.8% | 1e-09
CCCCCn1c(SCC(=O)OCC)nc2cc(C(=O)NCc3ccco3)ccc2c1=O | i | u | i | -0.3% | 4.2e-09
Cc1cccc(N2CCN(C3=NC(=O)C(=C4CCCCC4)S3)CC2)c1 | x | u | x | 2.0% | x
O=C(NCc1ccccn1)Nc1ccc(F)cc1 | i | -1% | i | -1.1% | 1e-09
Cc1noc(C)c1C(=O)Nc1sc2c(c1C(N)=O)CCCCC2 | i | -8% | i | -1.9% | 7.2e-09
O=C(c1cccs1)N1CCOCC1 | i | 1% | i | 0.9% | 2.1e-09
CCOC(=O)Cn1nc(-c2ccccc2)nc1-c1ccccc1 | i | u | i | -3.0% | 1e-09
COc1ccc(NC(=O)Nc2cccc(OC)c2)cc1 | x | u | x | -1.8% | x
CCOc1ccc(C(=O)COC(C)=O)cc1 | x | -11% | x | 2.7% | x
CCC(=O)Nc1cc2c(cc1C(C)=O)OCCO2 | x | -1% | x | -0.1% | x

This is a subset, so the mix of outcomes need not match the whole.
